# NPYLR7 ag = activates Aedes aegypti NPYLR7 receptor; HEK293T NPYLR7/Galpha15, GCaMP6s calcium fluorescence; activation, % at 10 µM; 0.15% of 270,000 active; in the data active means activation above about 40%;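 further: 0% = vehicle and 100% = reference agonist at the receptor; some compounds past the cut are filed as inactive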
# NPYLR7 ag max-min = also measured in NPYLR7 ag; calls as there; activation, %; measured here: Max-Min RFU normalised activation; some inactives read as strong as hits;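 span of the calcium signal over five minutes; 0% = vehicle and 100% = native peptide agonist; compound fluorescence can raise it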
# * hit, by the source's call; & = joins results of further samples.
# Values in the order: NPYLR7 ag	NPYLR7 ag max-min
O=C1CC(c2ccc(O)cc2)Oc2cc(O)cc(O)c21 (stereo not drawn)
  -4.2	-9.3
CCOCC(=O)N1CCc2c(nc(N(C)C)nc2N(C)C)C1
  2.2	0.9
Cc1ccccc1C(=O)NNC(=O)COc1cc(C)c(Cl)c(C)c1
  -2.7	-8.6
CCCc1[nH]n(-c2ccccc2)c(=O)c1C1=C([n+]2cccc(C)c2)C(=O)N(C2CCCCC2)C1=O
  -3.8	3.1
O=C(CC1CCOC1)OC1CCc2ccc(F)cc21 (stereo not drawn)
  6.3	3.5
c1ccc(Nc2c(-c3c[nH]c4ccccc34)nc3cnccn23)cc1
  3.1	-0.3
COC(=O)C1=C(C)N=c2s/c(=C/c3cccs3)c(=O)n2C1c1ccccc1 (stereo not drawn)
  -1.3	-8.1
CC(C)CCn1c(CN2CCN3C(=O)CNC(=O)C3C2)nc2ccccc21 (stereo not drawn)
  -1.7	-2.3
Cc1cc2nc(C)c(CCC(=O)OC(C)C(=O)NC3(C#N)CCCCC3)c(C)n2n1 (stereo not drawn)
  -3.3	-3.3
Cc1ccc(O)c(C(=O)C2=CSc3nnc(-c4ccc(Cl)cc4)n3N=C2)c1
  0.7	-3.6
O=C(Cn1ccn2nc(-c3ccc(Cl)cc3)cc2c1=O)NC1CCCC1
  5.2	3.4
Cc1ccc(C)n1-n1cnc2sc3c(c2c1=O)CCC3
  -0.9	-1.8
CC(/C=C/c1ccco1)=N/NC(=O)COc1cc(C)cc(C)c1
  -1.7	2.3
O=S(=O)(c1cc(Cl)cc(Cl)c1)N1CCC(c2cn(Cc3ccc(C(F)(F)F)cc3)c3ccccc23)CC1
  5.5	-1.8
Cc1nn2c(N)csc2nc1=O
  -4.9	-6.7
Cc1oc2nc3c(c(=O)n(Cc4cccc(Cl)c4)c(=O)n3C)n2c1C
  3.2	7.0
CC(c1cncs1)N(C)C(=O)c1cc(COc2cccc(F)c2)[nH]n1 (stereo not drawn)
  6.1	4.7
COc1ccc(CCN(Cc2ccc(C)s2)C(=O)CN(C(=O)/C=C/c2ccc([N+](=O)[O-])cc2)C2CC2)cc1OC
  -1.4	2.9
COc1ccc(-c2nn(-c3ccccc3F)cc2CN2CCCC2)cc1
  7.8	8.8
COc1ccccc1CN1CCn2nc(C(=O)NCCCN3CCOCC3)cc2C1=O
  16.8	13.8
COc1cnc(-c2cccc(C(F)(F)F)c2)c(NC(=O)c2cc(C)oc2C)n1
  0.9	5.4
O=C(CSc1ccc(-c2ccncc2)nn1)NC1CCCC1
  6.9	-4.7
Cc1[nH]n(-c2nc(-c3ccccc3)cs2)c(=O)c1N=Nc1ccccc1Br
  9.8	9.3
CC(c1ccc(C(=O)NCCSc2ncn[nH]2)o1)N1CCCCC1 (stereo not drawn)
  3.1	0.7
O=C(CC(c1ccccc1)c1ccccc1)NCCn1nc(-c2cccnc2)ccc1=O
  -7.2	-14.0
CC(C)c1nc(CNC(=O)CCc2nnc(C3CCCCC3)o2)cs1
  18.8	5.8
COc1cc(CN2CCNC(=O)C2CC(=O)NCc2csc(C(C)C)n2)cc(OC)c1 (stereo not drawn)
  6.7	3.1
CCCc1cc(C(=O)N2CCC3(CC2)C(=O)Nc2ccccc23)no1
  16.6	12.9
c1ccc(-c2noc(N3CCc4ccccc4C3)c2CNCC2CC2)cc1
  28.5	27.5
COc1ccc(-n2nc(-c3ccccc3)c3c2N(CC(=O)NCC2CCCO2)C(=O)CSC3c2ccccc2OC)cc1 (stereo not drawn)
  -3.4	4.9
O=C(CSc1nc2c(c(=O)n1Cc1ccccc1)SCC2)Nc1ccccc1
  2.7	-9.9
CC(/C=N\NC(=O)Cc1ccccc1)Cc1ccc(C(C)(C)C)cc1 (stereo not drawn)
  -8.4	-7.3
COCCN(CCC(=O)NCc1cccc(C(F)(F)F)c1)c1nc(-c2cccc(Br)c2)nc2ccccc12
  22.8	30.5
NCC1CCN(Cc2ccnc3ccccc23)C1 (stereo not drawn)
  22.3	10.4
COCCNc1ncnc2c1c(-c1ccccc1)cn2-c1ccc(C)cc1
  -5.5	-5.3
CCCN1CCC(C)(C(=O)Nc2cccc3ccccc23)C1 (stereo not drawn)
  -0.5	-0.3
O=C(NC1COc2ccccc21)C1CCCN1Cc1ccccc1 (stereo not drawn)
  1.2	2.1
COc1ccc(OC)c(-c2cnc(-c3ccc(CNC(=O)c4ccc(F)c(F)c4F)cc3)[nH]2)c1
  2.9	1.1
CC1CN(C(=O)COCCOc2ccccc2)C1c1ccccc1 (stereo not drawn)
  0.3	1.4
O=C(CCn1ncc(=O)c2ccccc21)NCc1cc(Cl)c2c(c1)OCCCO2
  5.4	3.2

# A second format for four compounds above.
Compound: COc1cnc(-c2cccc(C(F)(F)F)c2)c(NC(=O)c2cc(C)oc2C)n1
  NPYLR7 ag = 0.9
  NPYLR7 ag max-min = 5.4

Compound: O=C(CSc1ccc(-c2ccncc2)nn1)NC1CCCC1
  NPYLR7 ag = 6.9
  NPYLR7 ag max-min = -4.7

Compound: Cc1[nH]n(-c2nc(-c3ccccc3)cs2)c(=O)c1N=Nc1ccccc1Br
  NPYLR7 ag = 9.8
  NPYLR7 ag max-min = 9.3

Compound: CC(c1ccc(C(=O)NCCSc2ncn[nH]2)o1)N1CCCCC1 (stereo not drawn)
  NPYLR7 ag = 3.1
  NPYLR7 ag max-min = 0.7

# Following part.
# Values in the order: NPYLR7 ag	NPYLR7 ag max-min
CCOc1ccccc1N1CCN(S(=O)(=O)c2ccc(C)cc2)C(C)C1=O (stereo not drawn)
  18.0	20.4
CCCNc1c([N+](=O)[O-])c(=O)oc2ccccc12
  -4.4	-4.9
COC(=O)CC(NS(=O)(=O)c1ccc(C)c(C(F)(F)F)c1)C1CC1 (stereo not drawn)
  0.3	27.9
COCCN(CC1CCCC1)CC1CCCN(C2Cc3ccccc3C2)C1 (stereo not drawn)
  2.6	-0.4
O=P(O)(O)C(Cl)(Cl)P(=O)(O)O
  -6.8	-16.0
CCONC(=O)c1cc(-c2ccco2)n(-c2cccc(Cl)c2)n1
  10.3	4.4
c1ccn2cc(-c3ccc4c(c3)OCCO4)nc2c1
  7.2	4.9
Clc1ccc2c(NCCN3CCOCC3)nc(-c3ccco3)nc2c1
  7.3	6.4
O=C(NCc1nc2ccccc2[nH]1)c1cc(-c2ccccc2)n(C2CCS(=O)(=O)C2)n1 (stereo not drawn)
  1.9	1.1
Cc1nc(NCCN2CCCCC2CO)cc(C(C)C)n1 (stereo not drawn)
  -0.4	-2.4
COc1cccc(C2C(=C(O)c3ccc(OC(C)C)cc3)C(=O)C(=O)N2c2ccccn2)c1 (stereo not drawn)
  1.3	2.2
Cc1cc(C)cc(CSCCCn2c(=O)c3c(ncn3C)n(C)c2=O)c1
  4.2	1.8
O=C(Nc1ncc(Cc2cc(Cl)ccc2Cl)s1)c1ccco1
  5.4	3.7
O=C(CC12CC3CC(CC(O)(C3)C1)C2)OCc1nnc(-c2ccccc2)o1
  1.7	0.8
CC(C)(C)c1cn(CC2CCCN(c3cnc4ccccc4n3)C2)nn1 (stereo not drawn)
  5.8	3.8
O=S(=O)(c1ccc(NCc2ccccc2CN2CCCCC2)nc1)N1CCCC1
  0.0	-3.0
CC(C)Cn1c(=S)[nH]c2cc(Cl)ccc21
  3.0	30.5
CC(=O)c1ccc(N2CCN(Cn3ncn(-c4ccccc4)c3=S)CC2)c(F)c1
  8.2	11.0
COc1ccccc1-c1nc(C)c(-c2ccccc2)s1
  1.7	6.6
CCN(CC)S(=O)(=O)c1ccc(CNC(=O)Cn2ccnc2)cc1
  5.3	4.1
CCC(c1cccnc1)N(C)CCn1c(=O)oc2ccccc21 (stereo not drawn)
  3.0	1.9
CCCCN(CC(=O)Nc1cc(-c2ccccc2)nn1-c1ccc(OC)cc1)C(=O)Nc1ccccc1C(F)(F)F
  20.2	20.7
Cn1c(=O)n(CC(=O)OCc2ccccc2)c(=O)c2c1nc1n2CCCN1Cc1ccccc1
  7.0	6.5
CCN(CC)C(=O)Oc1ccc2c(ccn2C)c1NC(=O)[C@H](C)OC(C)=O
  0.3	-3.5
COC(=O)Cn1c(=NC(=O)CCc2ccccc2)sc2cc(Br)ccc21
  1.7	-1.1
Cn1c(N2CCN(Cc3csc(-c4ccc(F)cc4)n3)CC2)c(C#N)c(=O)n(C)c1=O
  4.1	2.8
CC(C)Cc1cc(C(=O)NCCN2c3ccccc3CC2C)n[nH]1 (stereo not drawn)
  -2.6	-3.2
O=C(c1ccccc1Br)N1C(=O)c2ccccc2S1(=O)=O
  3.1	3.7
Cc1ccccc1C(C)NC(=O)CSc1nc2ccsc2c(=O)n1C (stereo not drawn)
  1.1	3.1
Cc1nnc2ccc(OCCNS(=O)(=O)c3ccccc3C(F)(F)F)nn12
  -1.5	-0.8
CCN1CCN(C(=O)c2ccc(N3CCC(N4CCCC(OCc5ccccc5)C4)CC3)cc2)CC1 (stereo not drawn)
  -6.5	-11.3
Cc1ccn2c(NC(=O)C(C)C)c(-c3cccc(Cl)c3)nc2c1
  -2.1	-1.3
Cn1c(COc2ccc3ccccc3c2)nc2ccccc21
  -1.8	-2.9
C=CCN=c1scc(-c2ccc(C)cc2)n1N=C(C)c1cccnc1
  -8.4	-9.4
CC[C@H](O)[C@@H]1N(C(=O)c2cc(C)oc2C)C2CCC1(O)CC2
  21.5	30.9
Cc1csc2c(SCC(=O)N3CCCC(O)C3)ncnc12 (stereo not drawn)
  7.5	6.4
CC(C)C(CC#N)OC(=O)CCS(=O)(=O)c1ccc2c(c1)OCCCO2 (stereo not drawn)
  -4.4	-6.8
CC1CC(=O)c2cnn(-c3nc4ccccc4s3)c2C1 (stereo not drawn)
  15.0	6.8
Cc1nc2sccn2c1C(=O)N(Cc1ccccn1)CC1CCCO1 (stereo not drawn)
  5.5	0.9
COCCN1CCCC(O)(CN2CCN(c3nc4ccccc4o3)CC2)C1=O (stereo not drawn)
  18.8	7.5
C=CCn1c(=NC(=O)c2ccc(Br)s2)sc2cc(S(N)(=O)=O)ccc21
  5.5	1.4
COCCOc1nc(-c2ccc(F)cc2)n(-c2ccc(NC(=O)Nc3ccccc3C)cc2)n1
  19.1	30.6
CCn1nc(C)cc1C(=O)N1CCCC(CNC(=O)c2cccc3ccccc23)C1 (stereo not drawn)
  -0.6	-8.9
c1ccc(-n2nnnc2SCCc2nn[nH]n2)cc1
  2.5	0.8
COc1cccc(-c2cc(C(=O)N3CCN(C(=O)c4ccc([N+](=O)[O-])cc4)CC3)c(C)n2-c2ccccc2)c1
  17.5	24.7
CCc1nnc2n1CCN(C(=O)C(OCC1CCCO1)C(C)C)C2 (stereo not drawn)
  0.7	-0.1
CC(C)C(NS(=O)(=O)c1cccs1)C(=O)NNC(=O)c1ccc(Cl)cc1 (stereo not drawn)
  2.1	0.6
CC(=O)Nc1ccc(S(=O)(=O)N2CCN(c3nc(-c4ccc(C(F)(F)F)cc4)nc(C)c3C(C)C)CC2)cc1
  -0.1	7.3
Cc1ccc(Cl)cc1N1CCN(Cc2nc(-c3ccccn3)no2)CC1
  13.5	7.9
Cc1cc(S(=O)(=O)N2CCN(CC(=O)NCC3CC3)CC2)c(C)s1
  -6.3	-5.1
CCOC(=O)C(=O)N1CCN(c2cc(S(=O)(=O)N3CCN(CC)CC3)ccc2OC)CC1
  5.2	0.7
COC(=O)c1c(NC(=O)CSc2nc(C)nc3sc4c(c23)CCC4)sc2c1CCC2
  -4.4	-9.8
Cc1sc2ncnc(N(C)C3CCCCC3)c2c1S(=O)(=O)N1CCC(C)CC1
  -1.2	-0.7
Cc1c(C#N)c(NC(=O)CCCl)n(Cc2ccco2)c1C
  3.2	3.8
O=C(NCc1cccnc1)C1COC2(CCN(C(=O)c3ccccc3F)CC2)N1C(=O)c1cccc(F)c1 (stereo not drawn)
  1.9	13.7
Cc1[nH]cnc1C(=O)N1CCCC(CCc2ccc(F)cc2F)C1 (stereo not drawn)
  7.0	4.9
CC(=O)Nc1nc(C23CC4CC(CC(C4)C2)C3)c(C)s1
  9.8	3.6
C[C@H](N)[C@H](O)c1cccc(O)c1
  -3.3	-6.6
CCOc1cccc2cc(C(N)=O)c(=Nc3ccc(C)cc3)oc12
  -5.4	-7.5
Cc1nn(CC(C)C)c(Cl)c1C(=O)NCC1Cc2ccccc2O1 (stereo not drawn)
  9.1	8.0

# Carrying on.
# Values in the order: NPYLR7 ag	NPYLR7 ag max-min
CN(CC(=O)Nc1ccccc1C(F)(F)F)C(=O)C1CC1
  1.6	-2.3
CCOC(=O)C1=C(COC(=O)c2c(C)noc2C)NC(=O)NC1c1cccs1 (stereo not drawn)
  -0.8	-1.3
Cc1n(O)c2c(NO)ccc(N=O)c2[n+]1[O-]
  0.4	0.2
Cn1c(=NNC(=O)c2ccccc2Br)sc2ccccc21
  -6.9	-14.2
CN(Cc1cc2n(n1)CCCNC2)Cc1cc(-c2ccncc2)no1
  8.0	6.5
COc1ccc(N2CC(c3nc4ccccc4n3CCOc3cccc(OC)c3)CC2=O)cc1 (stereo not drawn)
  0.3	-2.8
CC#CC#C/C=C1\C=CC2(OC=CC2OC(=O)C=C(C)C)O1 (stereo not drawn)
  -7.2	-12.5
CC1CN(CCNC(=O)c2ccc3nc[nH]c3c2)CC(C)O1 (stereo not drawn)
  20.0	14.9
O=C(CCC1CCCN(C(=O)c2cccc(N3CCCC3=O)c2)C1)NCc1ccccc1F (stereo not drawn)
  9.7&3.9	5.9&7.2
Fc1ccc(OCCCN2CCN(Cc3cc4n(n3)CCNC4)CC2)cc1
  20.1	13.0
COc1cc2ccccc2cc1C(=O)Nc1cc(-c2nc3ccccc3o2)ccc1C
  -3.3	-10.1
Cc1ccccc1C(=O)Nc1sc2c(c1C(=O)N(C)C)CCC(C)C2 (stereo not drawn)
  3.1	0.9
CCOC(=O)c1nn(-c2ccc(C)cc2)c(=O)cc1OS(=O)(=O)c1cccc(C)c1
  -0.1	6.2
CC(C)(C)C1CCc2nc(SC3CC(=O)N(c4ccccc4)C3=O)c(C#N)cc2C1 (stereo not drawn)
  22.1	16.8
COc1ccc(CNS(=O)(=O)c2cc(F)ccc2OC)cc1
  10.0	9.7

# Compound activity (PubChem)

# An excerpt; the hit share may differ from the screen's.
